KCNQ2 pot: potentiators of rat KCNQ2 potassium channel; Potassium voltage-gated channel subfamily KQT member 2 (Rattus norvegicus), O88943; 310,000 tested, 0.54% active; AID 2239, 2010; CHO-K1 KCNQ2, FluxOR thallium flux fluorescence; hits give high values; B-score at 10 µM;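 active = fluorescence ratio B-score at least 3 SD of library B-scores, with initial fluorescence B-score within 3 SD, cut at about 5.3 in these data; same plate scores as AID 2156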;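 also: B-score of peak minus minimum over baseline fluorescence ratio after K+ and Tl+ stimulus; positive B-score means potentiation of KCNQ2 with more thallium influx and brighter signal; only the inactives scoring about 0 or higher are listed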
Target sequence (O88943 whole entry, looked up): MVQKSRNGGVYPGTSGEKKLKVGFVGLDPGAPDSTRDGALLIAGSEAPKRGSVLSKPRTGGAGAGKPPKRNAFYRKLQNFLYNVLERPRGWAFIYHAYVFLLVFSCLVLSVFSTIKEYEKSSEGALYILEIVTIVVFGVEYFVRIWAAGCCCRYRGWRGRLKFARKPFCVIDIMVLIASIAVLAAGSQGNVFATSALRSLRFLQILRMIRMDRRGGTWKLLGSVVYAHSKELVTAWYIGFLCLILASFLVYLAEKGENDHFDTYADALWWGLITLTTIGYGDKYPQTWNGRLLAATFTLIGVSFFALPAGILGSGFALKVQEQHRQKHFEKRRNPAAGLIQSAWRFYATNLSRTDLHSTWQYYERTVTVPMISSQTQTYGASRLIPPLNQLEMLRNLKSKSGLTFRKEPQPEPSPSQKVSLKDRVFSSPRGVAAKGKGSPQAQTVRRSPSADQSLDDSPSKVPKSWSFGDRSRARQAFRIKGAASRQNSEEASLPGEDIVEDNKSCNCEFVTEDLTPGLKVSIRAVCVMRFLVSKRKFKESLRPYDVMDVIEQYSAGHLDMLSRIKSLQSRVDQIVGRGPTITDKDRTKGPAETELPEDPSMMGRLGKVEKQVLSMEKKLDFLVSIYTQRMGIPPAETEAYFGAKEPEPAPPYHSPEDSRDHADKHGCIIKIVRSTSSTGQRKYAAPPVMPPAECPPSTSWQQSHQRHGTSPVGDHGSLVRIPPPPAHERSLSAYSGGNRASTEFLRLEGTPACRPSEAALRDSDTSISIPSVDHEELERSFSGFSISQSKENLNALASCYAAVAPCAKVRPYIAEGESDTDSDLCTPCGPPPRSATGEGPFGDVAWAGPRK
KCNQ2 pot baseline: recorded beside KCNQ2 pot, whose call it bears; B-score; compound at 10 µM; measured here: initial fluorescence intensity artifact check;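 brightness before thallium and not channel activity; 0 = typical well and far values either way flag optical interference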
An asterisk follows results filed as active; · = not tested or not shown. This is a subset. The share of hits here may be higher or lower than overall.

SMILES	KCNQ2 pot	KCNQ2 pot baseline
O=C(NC1CCN(S(=O)(=O)c2ccc(F)cc2)CC1)c1ccco1	0.75	-2.2
Cc1cccc(NC(=O)NNC(=O)c2cc3occc3[nH]2)c1C	0.41	-0.46
Cc1cc(=O)[nH]c2ccc(S(=O)(=O)NC3CCCCC3)cc12	1.07	-0.03
Cc1cc(Cl)ccc1NC(=S)N1CCN(C(=O)C2CCCO2)CC1 (stereo not drawn)	0.86	0.31
O=C(CN1CCCCCC1)Nc1ccc(F)c(F)c1	0.65	1.13
CCOC(=O)c1sc(NC(=O)CNCc2ccccn2)c(C(=O)OCC)c1C	0.31	0.01
Cc1cc(C(=O)OCC(=O)NC2CCS(=O)(=O)C2)c2ccccc2n1 (stereo not drawn)	1.72	-0.05
CCOc1ccc(C(C)NC(=O)Cc2ccccc2F)cc1OCC (stereo not drawn)	1.39	0.69
COc1ccc(C2=NC(=O)NC2c2ccc(OC)cc2)cc1 (stereo not drawn)	0.85	-1.11
CCSc1ccccc1C(=O)Nc1cc(OC)c(OC)c(OC)c1	0.78	-0.18

An excerpt from above in order of the KCNQ2 pot value, highest first:
SMILES	KCNQ2 pot	KCNQ2 pot baseline
Cc1cc(=O)[nH]c2ccc(S(=O)(=O)NC3CCCCC3)cc12	1.07	-0.03
Cc1cc(Cl)ccc1NC(=S)N1CCN(C(=O)C2CCCO2)CC1 (stereo not drawn)	0.86	0.31
COc1ccc(C2=NC(=O)NC2c2ccc(OC)cc2)cc1 (stereo not drawn)	0.85	-1.11
O=C(NC1CCN(S(=O)(=O)c2ccc(F)cc2)CC1)c1ccco1	0.75	-2.2
O=C(CN1CCCCCC1)Nc1ccc(F)c(F)c1	0.65	1.13
Cc1cccc(NC(=O)NNC(=O)c2cc3occc3[nH]2)c1C	0.41	-0.46
CCOC(=O)c1sc(NC(=O)CNCc2ccccn2)c(C(=O)OCC)c1C	0.31	0.01

Continuation:
SMILES	KCNQ2 pot	KCNQ2 pot baseline
CCOc1cc(-c2nc3cc(C)ccn3c2NCC2CCCO2)ccc1O (stereo not drawn)	-5.56	·
N#Cc1c(-c2ccccc2)c(-c2ccccc2)nn(CC(=O)NNC(=O)Nc2ccc(Cl)cc2)c1=O	0.67	0.52
Cc1cccc(C(=O)NC(=S)Nc2ccc3[nH]c(=O)[nH]c3c2)c1	0.46	-2.29
O=C(Nc1cccc(-c2nn[nH]n2)c1)c1csc2c1CCCC2	0.3	0.01
Cn1ncc2c(NNC(=O)Cc3ccccc3)ncnc21	0.5	-0.33
CCOC(=O)N1CCN(C(=O)CSCC(=O)Nc2nc(-c3ccc(OC)cc3)cs2)CC1	0.86	2.55
CC(C)(C)NC(=O)/C=C/c1cccs1	2.46	0.39
NNC(=O)c1ccc(Cn2cc(Cl)cn2)o1	0.62	0
CCOc1cccc(N2CCN(CCNC(=O)Nc3ccc(C)cc3)CC2)c1C	0.13	-0.03
O=C(CSc1cccc[n+]1[O-])Nc1ccc(N2CCOCC2)cc1	0.6	-0.12
O=C(COc1cc2oc(=O)c3c(c2cc1Cl)CCCC3)NCc1cccnc1	1.71	0.09
CCOC(=O)c1c(C)[nH]c(C(=O)COC(=O)C(C)N2C(=O)C3CCCCC3C2=O)c1C (stereo not drawn)	2.82	-0.46
Cc1ccsc1C(=O)N/N=C/C=C/c1ccccc1[N+](=O)[O-]	0.45	-0.39
COC(=O)c1ccc(NC(=O)C2CCCO2)cc1 (stereo not drawn)	0.5	1.1
Cc1ncc(CN=Cc2ccc(Cl)cc2)c(N)n1	1.7	-1.38
CCn1cc(C(=O)O)c(=O)c2cc(F)c(N/N=C/c3ccccc3[N+](=O)[O-])cc21	0.6	-0.54
C=CCNC(=O)c1cc(Cl)cc(Cl)c1	0.83	0.16
CCOc1cc(C(=O)OCC(=O)NCc2ccco2)cc(OCC)c1OCC	1.37	-0.92
O=C1NC(c2ccccc2)=NC1(NS(=O)(=O)c1ccccc1)C(F)(F)F (stereo not drawn)	0.02	1.09
O=C(NCC(c1cccnc1)N1CCN(c2ccccc2F)CC1)c1ccco1 (stereo not drawn)	1.21	-0.71
COc1ccc(CSc2nncn2C)cc1[N+](=O)[O-]	1.15	-1.54
O=C(NCCS(=O)(=O)N1CCN(c2ccccc2)CC1)C1CC1	0.39	0.9
O=C(Nc1cnn(Cc2ccc(Cl)cc2)c1)C1CCCC1	1.12	0.02
Cc1cc(-c2cc(C(=O)Nc3ccccc3)on2)nc(NCC2CC2)n1	0.29	-0.91
O=C(C1CCCN(S(=O)(=O)c2ccc(F)cc2)C1)N1CCCC1 (stereo not drawn)	1.82	-0.27
O=C(NNC(=O)[C@H]1CC=CC[C@H]1C(=O)O)c1ccc(Cl)cc1Cl	1.45	0.18
CC1=CC(C)=Nc2ccc(C)cc2N1	0.01	·
Cc1cc2ncn(CC(C)C)c2cc1C	0.61	-0.81
CC1(C)CC(=O)c2cnc(NC(=O)CSc3nc4ccccc4o3)nc2C1	0.16	1.58
CC(C)c1ccc(N(CC(=O)NCc2ccco2)C(=O)CCC(=O)Nc2ccccn2)cc1	1.92	-0.69
CCCCn1c(SCN2C(=O)c3ccccc3C2=O)nc2cc(S(N)(=O)=O)ccc21	1.79	-0.35
O=c1[nH]c(=S)n(-c2cccc(Cl)c2)c(O)c1/C=N/N1CCOCC1	1	1.48
CCN1C(=O)/C(=C/N2CCc3ccccc32)SC1=S	0.2	0.01
Cc1cc(Cl)cc(C)c1OCCCCn1ccnc1	0.02	0.07
Cc1cc(C)cc(NC(=O)c2ccc(S(=O)(=O)NCc3cccnc3)cc2)c1	3.32	0.45
COc1ccc(N2CCN(C3CCCN(S(=O)(=O)c4ccccc4)C3)CC2)cc1 (stereo not drawn)	1.04	1.5
O=C(O)C1CC(c2cccc(Br)c2)=NO1 (stereo not drawn)	0.95	0.17
CC(C)(C)c1nc2ccc(NS(=O)(=O)c3ccc(F)c(F)c3F)cc2[nH]1	2.49	0.34
COc1cc(OC)cc(OC(=O)C2CCN(C(=O)c3ccc(F)cc3)CC2)c1	0.56	-1.06
Cc1ccccc1CN1CCN(c2nc3ccccc3s2)CC1	0.82	2.27
COc1cccc(-c2cc(C(F)(F)F)n3nc(N)nc3n2)c1	2.24	-0.7
O=C(Cn1nnc(-c2ccc(S(=O)(=O)N3CCCC3)cc2)n1)NCC1CCCO1 (stereo not drawn)	1.04	1.1
O=C(/C=C/c1ccccc1)NC(=S)NNC(=O)c1cnccn1	0.06	-0.22
O=C(NCCC(=O)N1CCc2ccccc21)c1ccco1	0.17	-0.08
Cc1ccc(C)c(NC(=O)CCC(=O)NNC(=O)c2cccc([N+](=O)[O-])c2)c1	0.07	0.38
COc1ccccc1S(=O)Cc1ccc(C(=O)NC2CCCC2)o1 (stereo not drawn)	0.12	1.87
CC(C)CN(C(=O)COc1ccc2ccc(=O)oc2c1)C1CCS(=O)(=O)C1 (stereo not drawn)	1.47	-0.42
Cc1cc2[nH]c3ccccc3c2c(C)n1	2.41	0.65
CCC(C)C(=O)Nn1c(C2CC2)nc2cc(OC)c(OC)cc2c1=O (stereo not drawn)	0.71	-2.38
CCN(CC)CCN1C(=O)C(=O)/C(=C(/O)c2ccc(S(=O)(=O)N3CCOCC3)cc2)C1c1ccc(C(C)(C)C)cc1 (stereo not drawn)	0.06	-4.11

2 compounds picked at random from the list so far:
SMILES	KCNQ2 pot	KCNQ2 pot baseline
O=C(Cn1nnc(-c2ccc(S(=O)(=O)N3CCCC3)cc2)n1)NCC1CCCO1 (stereo not drawn)	1.04	1.1
Cc1ccc(C)c(NC(=O)CCC(=O)NNC(=O)c2cccc([N+](=O)[O-])c2)c1	0.07	0.38

The list continues:
SMILES	KCNQ2 pot	KCNQ2 pot baseline
CC1(OC(=O)CCc2ccccc2)C(=O)C=C2C=C3CCCN3C=C2C1=O (stereo not drawn)	1.18	0.03
COc1ccccc1CCNC(=O)CSc1nc(-c2ccco2)cc(C(F)(F)F)n1	0.25	2.49
CCC1(NC(C)=O)CC2CC1CC2NC(C)=O (stereo not drawn)	0.12	-0.02
O=C(NCc1ccc(Cl)cc1)c1ccc(N2CCCC2=O)cc1	1.22	-0.92
Cc1cccc(C)c1N(CC(=O)NCc1ccccc1)C(=O)c1csnn1	0.78	3.16
Cc1ccc(C2C=C(c3ccccc3)Nc3ncnn32)cc1 (stereo not drawn)	0.33	1.01
Cn1c(=O)c2c(nc(CN3CCN(C(=O)c4ccco4)CC3)n2Cc2ccc(Cl)cc2)n(C)c1=O	1.85	-0.17
COc1cc(CNCc2ccccc2)ccc1OCC(O)c1ccccc1 (stereo not drawn)	0.04	-0.44
COCCNC(=O)C(c1cccs1)N(C(=O)Cn1nnc2ccccc21)c1ccccc1 (stereo not drawn)	0.8	0.76
O=C(Cn1c(=S)[nH]c2ccccc2c1=O)N1CCc2ccccc2C1	0.87	0.09
CN(C)c1nc(N)nc(CSc2ncc(Cl)cc2Cl)n1	0.75	1.28
CCN(CC)c1ccc(/C=N/NC(=O)c2cccc(S(=O)(=O)Nc3ccccc3OC)c2)c(O)c1	0.17	-0.74
O=C(c1ccc(OC2CCN(CCCc3ccccc3)CC2)cc1)N1CCCC1	0.48	-1.3
CC(C)(CNC(=O)c1cccc(F)c1)CNC(=O)c1cccc(F)c1	2.19	-1.96
NS(=O)(=O)c1ccc(NC(=S)N2CCN(Cc3ccc(Cl)c(Cl)c3)CC2)cc1	0.11	1.14
COc1cc(OC)cc(-c2nnc(SCC(=O)NCc3cccs3)o2)c1	0.84	-0.58
C/C(CC(=O)Nc1ccc(Cl)cc1Cl)=N\NC(=O)c1cnccn1	0.85	1
O=C(Oc1ccc(C(=S)N2CCOCC2)cc1)c1ccc(F)cc1	0.37	1.42
Cc1nn(Cc2ccc(Br)cc2)c(C)c1NC(=O)c1nn(C)cc1Cl	0.35	-2
c1ccc(-n2nnc3c(N4CCOCC4)ncnc32)cc1	0.02	-1.07
CCc1ccc(OCC(=O)NC(=S)Nc2ccc(F)cc2)c(Br)c1	1.12	1.08
O=C(COC(=O)c1ccc[nH]c1=O)NC1CCCC1	0.24	0.08
Nc1ccccc1-c1nc2ccccc2[nH]c1=O	2.06	-0.98
CCCCC1CCC(C(=O)OCC(=O)Nc2ccc(S(N)(=O)=O)cc2)CC1 (stereo not drawn)	3.46	-1
CCOCCCNC(=O)Cn1cnc2c(cnn2-c2ccc(OC)cc2)c1=O	0.45	-0.23
CC1CCN(CCCNc2cc(NCCO)c([N+](=O)[O-])c3nonc23)CC1	0.72	0.86
Cn1c(=O)[nH]c(=O)c2c1nc(N1CCOCC1)n2CCN1CCOCC1	0.73	-0.09
CSc1nc(-c2cccs2)c(C#N)c(=O)[nH]1	0.13	-0.85
CCN1C(=O)N[C@@H](c2cccc(C(F)(F)F)c2)C(C(=O)OC)=C1C	1.04	0.11
CCCS(=O)(=O)c1nc(S(=O)(=O)c2ccc(C)cc2)c(N2CCN(CCO)CC2)s1	2.74	-0.28
Cn1c(C(=O)N2CCCc3ccccc32)cc2c(=O)n3ccccc3nc21	0.9	-0.38
O=C(Cn1cc(C(F)(F)F)ccc1=O)N/N=C/c1ccc(Cl)cc1Cl	0.58	-2.39
CCCc1ccc(NC(=O)C2CCN(c3cnccn3)CC2)cc1	2.02	0.05
COC(Cn1c2c(c3cc(C)ccc31)CCCC2NCc1ccccc1)OC (stereo not drawn)	1.31	0.8
Cc1cc(C)c(C#N)c(OCC(=O)c2ccc(Br)cc2)n1	1.18	-1.82
CCC(C)c1ccc(NC(=O)CC(C)=O)cc1 (stereo not drawn)	1.03	-0.12
CSCCC(NS(=O)(=O)c1ccc(C)cc1)C(=O)NNC(=O)c1csc(N2CCOCC2)n1 (stereo not drawn)	0.09	0.39
Cc1ccccc1NS(=O)(=O)c1ccc2[nH]c(=O)[nH]c2c1	0.72	-2.81
O=C(CSc1n[nH]c(-c2ccco2)n1)Nc1ccccc1F	0.27	0.8
O=C(CSc1nnc(-c2cccs2)n1CC1CCCO1)N1CCCC1 (stereo not drawn)	0.2	0.51
CCCC(C)c1nnc(NC(=O)C2CC(=O)N(CCc3ccc(F)cc3)C2)s1 (stereo not drawn)	1.15	0.21
OCCn1c(C(F)(F)F)nc2ccccc21	0.54	-0.22
Cc1ccc(S(=O)(=O)n2c(N)nc3ccccc32)cc1	0.22	-0.05
O=C(O)CCC(=O)Nc1ccc(-c2nc3ccc(C(=O)c4ccccc4)cc3[nH]2)cc1	1.71	-1.07
COC(=O)Nc1sc2c(c1C(N)=O)CCCCCC2	0.33	0.13
COc1ccccc1NC(=O)Cn1nc(C(F)(F)F)c2c1CCCC2	0.44	-0.95
CCN1CCN(C(=O)c2ccccc2N(Cc2ccccc2)S(C)(=O)=O)CC1	1.72	-0.19
Nc1nonc1-n1nnc(C(=O)N/N=C/c2ccncc2)c1-c1cccs1	0.51	1.28
O=C(CCN1C(=O)c2ccccc2S1(=O)=O)Nc1ccc(F)cc1F	0.67	-0.25
Cc1ccc(SC2CC(=O)N(c3ccc4c(c3)OCCO4)C2=O)cc1 (stereo not drawn)	0.32	0.34

Entries of single compounds, quoted from the list. Order of screens: KCNQ2 pot	KCNQ2 pot baseline
O=C(CCN1C(=O)c2ccccc2S1(=O)=O)Nc1ccc(F)cc1F across the screens: 0.67	-0.25
COc1ccccc1NC(=O)Cn1nc(C(F)(F)F)c2c1CCCC2 across the screens: 0.44	-0.95
CCCC(C)c1nnc(NC(=O)C2CC(=O)N(CCc3ccc(F)cc3)C2)s1 (stereo not drawn) across the screens: 1.15	0.21
CCN1CCN(C(=O)c2ccccc2N(Cc2ccccc2)S(C)(=O)=O)CC1 across the screens: 1.72	-0.19

The list continues:
SMILES	KCNQ2 pot	KCNQ2 pot baseline
COc1ccc(-n2ccnc2SCC(=O)NCc2ccco2)c(OC)c1	2.74	-0.14
COc1cccc(NC(=S)NC(=O)/C=C/c2ccc(F)cc2)c1	0.18	1.42
COc1ccc(CN(CC(=O)NC2CCCCC2)C(=O)CCCC(=O)Nc2ccccn2)cc1	0.79	-0.96
O=C(O)c1ccccc1C(=O)N1CC=C(c2ccccc2)CC1	0.12	-1.47
Cc1ccc(NC(=O)CSc2nnc(CNC(=O)c3ccco3)n2C)cc1C	1.05	0.04

Screening data (PubChem)
